rRNA inh HTS: inhibits bacterial ribosomal RNA function over humanized ribosomes; GFP signal change (wild-type ribosome), % (test concentration not listed); 350,000 compounds, 1.6% hits; AID 720706; E. coli WT GFP vs humanized-ribosome RFP mutants, fluorescence, 24 h; active compounds read low; DMSO median 0, no signal -100;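 active = significant combined selectivity score with lowered wild-type GFP, culture density cut under 30%, mutant RFP and density less affected; inactive = any of these conditions unmet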; note: one replicate is shown; some compounds called inactive have numbers as strong as hits
Vif TR-FRET: inhibitors of Vif binding to APOBEC3G peptide, primary screen, biochemical, TR-FRET, GST-Vif 1-94, biotin-A3G peptide, dose response retest (AID 1117319); TR-FRET GST-Vif / biotin-A3G peptide binding; higher % means a stronger effect; test concentration not given here; strong numbers were not always called active; one-dose inhibition, %; IC50 in µM for titrated hits; 260,000 compounds, 0.57% hits;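 active = above the screen mean plus three standard deviations and confirmed in dose response; inconclusive = results disagree or hit not tested in dose response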;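 note: Vif residues 1-94 fused to GST binding biotinylated APOBEC3G peptide 110-148; 0% = full assay without inhibitor and 100% = GST in place of GST-Vif; retest series ran down from 100 µM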
HNF4A DNA FP: change in binding of human HNF4 alpha to DNA. 360,000 compounds, 0.3% hits. activity change, % at 10 µM. AID 1224865. HNF4a-FITC DNA binding, fluorescence polarization, 1 h; in the data active = activity change above about 30%, passing the limit was not always enough;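 note: controls were the assay level and a saturating level of protein; the project sought stronger binding though the title names inhibitors; some compounds called inactive have numbers as strong as hits; positive values seem to mean higher polarization but the record does not say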
Target sequence (P41235 whole entry, looked up): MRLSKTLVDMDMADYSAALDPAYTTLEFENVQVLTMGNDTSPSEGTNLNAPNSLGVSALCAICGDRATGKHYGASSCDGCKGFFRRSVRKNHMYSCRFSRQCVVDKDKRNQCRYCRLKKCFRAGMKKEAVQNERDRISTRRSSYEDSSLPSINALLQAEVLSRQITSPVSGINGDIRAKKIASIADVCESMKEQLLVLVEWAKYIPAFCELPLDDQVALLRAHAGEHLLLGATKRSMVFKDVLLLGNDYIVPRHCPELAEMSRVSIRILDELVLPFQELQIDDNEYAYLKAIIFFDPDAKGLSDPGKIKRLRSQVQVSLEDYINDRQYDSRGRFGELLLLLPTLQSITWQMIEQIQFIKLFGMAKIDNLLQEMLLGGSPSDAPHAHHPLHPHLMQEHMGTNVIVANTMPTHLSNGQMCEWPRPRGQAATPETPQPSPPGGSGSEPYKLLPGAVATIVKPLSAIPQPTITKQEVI
MLL AF4-AF9 inh: inhibitors of human MLL-AF4/AF9 interaction. inhibition, % at 10 µM. AlphaScreen, biotin-AF4 peptide binding to FLAG-AF9. 350,000 compounds, 0.47% hits. P42568. AID 651704;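 active = every replicate reaching a set inhibition limit, whatever the replicate mean, cut at about 25% in these data; inconclusive = mean inhibition reaches that limit but some replicates miss it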;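 note: 0% = plate neutral control median and 100% = total signal loss; the record names both 10 and 1 µM as test concentration; the first replicate is given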
Target sequence (P42568 whole entry, looked up): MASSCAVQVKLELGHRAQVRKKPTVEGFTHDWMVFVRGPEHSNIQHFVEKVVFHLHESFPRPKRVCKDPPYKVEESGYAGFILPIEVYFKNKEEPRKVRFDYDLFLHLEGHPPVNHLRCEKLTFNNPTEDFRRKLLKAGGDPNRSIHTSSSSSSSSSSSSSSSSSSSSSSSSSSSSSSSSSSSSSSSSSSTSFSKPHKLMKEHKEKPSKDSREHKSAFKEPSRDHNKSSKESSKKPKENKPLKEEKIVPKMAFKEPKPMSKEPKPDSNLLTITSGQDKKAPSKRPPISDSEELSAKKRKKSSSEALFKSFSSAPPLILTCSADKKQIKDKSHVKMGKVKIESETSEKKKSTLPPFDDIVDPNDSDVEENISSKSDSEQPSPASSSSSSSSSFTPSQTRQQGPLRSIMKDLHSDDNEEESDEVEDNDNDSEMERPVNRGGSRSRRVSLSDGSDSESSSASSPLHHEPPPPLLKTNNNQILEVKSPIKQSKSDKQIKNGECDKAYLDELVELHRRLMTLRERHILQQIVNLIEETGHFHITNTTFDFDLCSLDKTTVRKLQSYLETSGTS
E coli growth: blocks Escherichia coli growth; OD600, 23 h; active compounds read low; OD600 absorbance (no concentration beside the values); 330,000 compounds, 0.21% hits; AID 1053175;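 active = OD600 absorbance below the run mean of sample wells minus 3.6 SD, in any replicate, cut at about 0.56 in these data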;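 note: stock transfer was 300 nL into about 60 µL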
FGF22 binding: binders of recombinant human FGF22 by thermal shift | Q9HCT0 | SYPRO orange fluorescence; percent of sucrose octasulfate shift, DMSO zero | calls only at 9.99 µM | 340,000 compounds, 1.5% hits | AID 651658;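 active = melting point raised past a set limit in the mean and every replicate; inconclusive = no clear call; three in four hits are not shown here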
ALR H2O2 inh: human ALR oxidase inhibition via reduced H2O2. inhibition, % (concentration not given with the values). purified ALR, DTT oxidation, H2O2 HRP-luminol luminescence. 290,000 compounds, 3.8% hits. P55789. AID 485317;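 active = mean and each replicate at 75% or more; inconclusive = only one of the two met; inactive = neither met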;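 note: stock transfer was 7.5 nL into about 7.5 µL; 0% = neutral wells and 100% = wells with inactivated enzyme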
rRNA inh HTS OD600: recorded beside rRNA inh HTS, whose call it bears; OD600 change, %; measured here: OD600 growth;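 optical density of the mix in the first replicate; 0 = DMSO median and -100 = no signal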
rRNA inh HTS RFP: also measured in rRNA inh HTS; calls as there; RFP signal change, %; measured here: RFP humanized mutant strains;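 first replicate; 0 = DMSO median and -100 = no signal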
Active calls of the source: *; i = inactive; ? = inconclusive; / = no result given. Some of the compounds tested; count on the stated rates, not on these rows.

SMILES | rRNA inh HTS | rRNA inh HTS OD600 | rRNA inh HTS RFP | Vif TR-FRET | HNF4A DNA FP | MLL AF4-AF9 inh | E coli growth | FGF22 binding | ALR H2O2 inh
COc1ccc(CCNC(=O)COC(=O)CCC(=O)c2ccc(F)cc2)cc1OC | -7.0 | -6.5 | -1.2 | 9.3% | 3.8 | 0.0 | 0.664 | i | 2.6
N/C(Cc1ccc(Cl)cc1)=N\OC(=O)c1cccc2ccccc12 | / | / | / | 17.2% | -0.3 | / | 0.683 | / | -10.6
Cc1ccnc(NC(=S)NC(=O)/C=C/c2ccco2)c1 | / | / | / | ? | -1.3 | / | 0.747 | / | 5.4
C[C@@H]1CN([C@@H](C)CO)C(=O)c2cc(NC(=O)CCC(F)(F)F)ccc2O[C@@H]1CN(C)CC1CCCCC1 | 0.4 | 1.5 | 2.6 | / | / | -15.9 | / | i | /
COc1cc(NC(=O)CSc2nnc3ccc(-c4ccncc4)nn23)cc(OC)c1 | 7.2 | -0.2 | 1.8 | 19.6% | 4.4 | 1.1 | 0.697 | i | -27.9
CC(=O)c1c(C)[nH]c(C(=O)COC(=O)c2cc(C)oc2C)c1C | 3.5 | -4.3 | 6.8 | 8.0% | -4.4 | -3.9 | 0.696 | i | /
COc1ccccc1-c1cc(N)n(S(=O)(=O)c2cccc3nsnc23)n1 | -2.7 | 3.6 | -0.5 | -0.1% | 2.5 | 2.6 | 0.684 | i | 6.3
CSc1nnc(CNS(=O)(=O)c2ccc(Cl)cc2)n1C | 0.4 | 7.4 | -1.1 | -1.2% | -0.1 | -1.5 | 0.683 | i | -11.9
Cc1ccc(S(=O)(=O)c2nc(S(C)(=O)=O)sc2N2CCCC2)cc1 | 3.0 | 3.2 | -2.5 | -8.2% | 3.3 | 4.6 | 0.691 | i | -6.8
CCS(=O)(=O)N1CCC(C(=O)Nc2cccc(F)c2)CC1 | 4.8 | 4.0 | -0.7 | -0.7% | -1.6 | ? | 0.714 | i | 2.6
COc1cccc(/C=C2\C(=O)N(c3cccc(C)c3)C(=O)c3ccccc32)c1 | 6.3 | 7.4 | -5.0 | 31.2% | -5.2 | 5.1 | 0.732 | i | -14.0
CCCNC(=O)C[C@H]1C[C@@H]2c3cc(NC(=O)NC4CCCC4)ccc3O[C@@H]2[C@H](CO)O1 | -0.3 | 1.1 | -2.2 | / | / | -2.4 | / | i | /
O=C(CSc1nnc2ccccn12)c1ccc2c(c1)OCCO2 | / | / | / | 13.0% | 2.1 | / | 0.737 | / | 37.7
CN(C)CCCN(C(=O)c1ccc(S(=O)(=O)N2CCCCCC2)cc1)c1nc2ccc(Br)cc2s1 | -54.3 | -79.6 | -15.5 | / | 0.5 | 4.7 | 0.644 | i | -3.9
COc1ccc(NC(=O)C[C@H]2C(=O)N(CCc3ccccc3)C[C@@H]2C)cc1 | 0.0 | 4.2 | -1.2 | -6.1% | 6.9 | 0.8 | / | i | /
NS(=O)(=O)c1ccc(CCNC(=O)c2ccc(Cl)c(S(=O)(=O)N3CCCCCC3)c2)cc1 | -20.3 | -21.7 | 2.8 | / | 2.5 | 0.4 | 0.647 | i | /
O=C(CCn1[nH]c(=O)c2ccccc2c1=O)NCCO | 11.3 | 14.0 | 14.3 | 6.6% | -4.3 | 2.4 | 0.716 | i | 0.1
CCOC(=O)CN1C(=O)C(C)(C)Oc2ccc(C(=O)NC(C)(C)CC)cc21 | / | / | / | 3.2% | 3.8 | / | 0.633 | / | -15.7
CCCC(=O)C1=C(O)C(C(=O)OC)C(C)(C)CC1=Nc1cccc([N+](=O)[O-])c1 (centres undefined) | -2.6 | -5.5 | -3.7 | / | 0.6 | 4.2 | 0.638 | i | -3.5
COc1ccc(C(=O)NCCS(=O)(=O)N2CCc3ccccc3C2)c(OC)c1 | -14.6 | -15.5 | 3.5 | 12.2% | 6.0 | -2.4 | 0.707 | / | 6.2
O=C(c1ccco1)N1CCN(Cc2c(F)cccc2Cl)CC1 | 6.0 | -1.9 | 0.1 | / | -0.8 | 1.1 | 0.665 | i | 1.7
Cc1cc(O)cc(=O)n1CCc1ccccc1 | -0.2 | 0.9 | 0.5 | / | 1.7 | 2.0 | 0.7 | i | -2.0
Oc1ccc(-c2n[nH]c(=S)n2-c2ccc3c(c2)OCCO3)c(O)c1 | / | / | / | / | -1.9 | / | 0.655 | / | 85.9*
O=C(OCC(=O)c1c[nH]c2ccccc12)c1ccco1 | / | / | / | -2.7% | -2.6 | / | 0.699 | / | /
Cc1csc(NC(=O)c2cccn2C)n1 | / | / | / | -6.6% | -0.8 | / | 0.651 | / | -0.8

The list goes on:
SMILES | rRNA inh HTS | rRNA inh HTS OD600 | rRNA inh HTS RFP | Vif TR-FRET | HNF4A DNA FP | MLL AF4-AF9 inh | E coli growth | FGF22 binding | ALR H2O2 inh
CSc1nc(C)c2c(c1C#N)CCCC2 | / | / | / | -5.2% | 0.1 | / | 0.661 | / | -0.6
COc1cc(CSC)nc(-c2ccccc2)n1 | 8.8 | 6.1 | -2.1 | 20.9% | -0.4 | -0.1 | 0.685 | i | -2.9
COc1ccccc1OCC(=O)Nc1sc2c(c1C(N)=O)CCC2 | / | / | / | / | -4.7 | -0.6 | 0.689 | i | 32.2
NCCCC(=O)N1c2ccccc2Sc2ccccc21 | 5.5 | 5.5 | -0.3 | 3.3% | 2.9 | 6.8 | 0.698 | i | 1.8
NS(=O)(=O)c1ccc(CCNC(=O)c2cccc([N+](=O)[O-])c2)cc1 | 9.8 | 9.1 | 0.3 | 4.1% | 0.3 | 1.1 | 0.639 | / | -1.1
NNc1nc2c(-c3ccc(F)cc3)nnn2c2ccccc12 | -16.6* | 4.2* | -2.7* | 2.5% | 25.4 | 1.7 | 0.678 | i | 21.2
Cc1cc(N2CCC(C)CC2)n2nc(C)c(-c3ccccc3)c2n1 | / | / | / | -10.2% | 1.6 | / | 0.686 | / | /
C[C@H]1CN([C@@H](C)CO)C(=O)c2cc(-c3ccc(F)cc3)cnc2O[C@H]1CN(C)Cc1cccnc1 | 0.4 | -5.8 | 0.0 | / | / | -13.8 | / | i | /
FC(F)(F)c1nnc(-c2ccccc2)nc1Sc1ccc(Cl)cc1 | / | / | / | 17.5% | -0.1 | / | 0.697 | / | 18.3
CCC(=O)Nc1ccc2c(c1)C(=O)N(C)[C@H]1CC[C@@H](CC(=O)NC3Cc4ccccc4C3)O[C@@H]1CO2 | -0.3 | -3.2 | -1.1 | / | / | -9.3 | / | i | /
CCC/C(=C1/c2ccccc2C(=O)N1c1ccccc1)c1ccc(O[C@@H]2CCCCO2)cc1 | -15.3 | -16.8 | -0.4 | / | -0.7 | 8.7 | / | i | -1.3
O=C(CNS(=O)(=O)c1ccccc1)NCC(=O)OCc1ccc(Cl)cc1 | -7.0 | -1.9 | -0.2 | -2.4% | 5.9 | -15.5 | 0.735 | i | /
CCN1C(=O)CSc2ccc(C(=O)NC3CCCCC3)cc21 | / | / | / | 17.6% | -1.5 | / | 0.726 | / | 13.9
O=C(Nc1ccnn1C1CCN(Cc2ccccc2OC(F)F)CC1)c1cccc(F)c1 | 5.9 | 15.4 | 0.4 | / | 2.7 | 0.5 | 0.703 | i | -1.9
Cc1noc(C)c1S(=O)(=O)Nc1ccc2c(c1)CC(=O)N([C@@H](C)CO)C[C@@H](C)[C@H](CN(C)Cc1ccc(C(=O)O)cc1)O2 | -1.0 | 5.3 | 0.9 | / | / | -5.3 | / | i | /
CC(OC(=O)c1cc(Br)ccc1O)C(=O)NC1(C#N)CCCCC1 (centres undefined) | 8.0 | 3.5 | -2.4 | -97.0% | -1.5 | 6.4 | 0.637 | i | /
CCn1cc(CN2CCC(C(=O)Nc3cccc(-c4cccc(OC)c4)c3)CC2)cn1 | 15.9 | 19.4 | 3.4 | 2.8% | 1.8 | 0.2 | 0.705 | i | 0.5
COC(=O)C(NS(=O)(=O)c1ccccc1Br)C(C)C (centres undefined) | 4.9 | -0.6 | -5.2 | / | -1.1 | 2.4 | 0.702 | i | -3.5
Cc1cccc(-n2nnnc2SCC(=O)NC2CCCC2)c1 | -4.3 | -13.0 | 1.2 | 6.3% | 1.5 | 0.1 | 0.683 | i | -0.9
O=C(Nc1ccc2ccccc2c1)c1ccc(NS(=O)(=O)c2ccc(Br)s2)cc1 | / | / | / | / | 6.0 | / | 0.708 | / | -8.9
Cc1ccccc1C1CC(=O)NC2=C1C(=O)CCC2 (centres undefined) | / | / | / | -1.0% | -0.3 | / | 0.686 | / | -0.3
Cc1ccn2c(=O)c(NC(=O)c3cccc4ccccc34)c(C)nc2c1 | 7.1 | 6.0 | -0.7 | -19.5% | -3.0 | -14.0 | 0.705 | i | -3.9
COc1cc(C(=O)OC(C)C(=O)Nc2ccc3c(c2)OCCO3)cc(OC)c1OC (centres undefined) | 2.2 | 2.7 | 0.4 | / | 3.0 | 1.0 | 0.69 | i | 7.0
CCOC(=O)c1ccc(NC(=O)CSc2nnc(-c3ccncc3)n2C)cc1 | / | / | / | -3.4% | 1.6 | / | 0.687 | / | -1.0
COc1cnc(-c2ccccn2)nc1Oc1ccccc1 | -6.9 | -6.6 | -4.5 | 14.0% | 2.0 | 2.2 | 0.676 | i | -1.4

(more compounds)
SMILES | rRNA inh HTS | rRNA inh HTS OD600 | rRNA inh HTS RFP | Vif TR-FRET | HNF4A DNA FP | MLL AF4-AF9 inh | E coli growth | FGF22 binding | ALR H2O2 inh
Cc1nnc(SCC(=O)N2CCCC2)n1-c1ccc(F)cc1 | 5.7 | 12.1 | 2.3 | / | 1.4 | -1.2 | 0.714 | i | -11.2
COc1ccc(S(=O)(=O)c2cnc3ccccc3n2)cc1 | 5.0 | 2.9 | -2.4 | 0.6% | -0.3 | -3.1 | 0.671 | i | 4.0
Cc1ccc(NS(=O)(=O)c2ccc(-n3cccn3)cc2)cc1Cl | 12.9 | 12.3 | 5.0 | -1.3% | 3.1 | -3.6 | / | i | /
Cn1c(=O)c(NC2CCCCC2)c2c3c(cccc31)C(=O)c1ccccc1-2 | 80.7 | -4.5 | 7.6 | -7.7% | -110.4 | -30.0 | 0.73 | i | /
S=C1NCN(Cc2cccnc2)CN1c1cccc2ccccc12 | 13.7 | 7.5 | 1.6 | 0.3% | 2.7 | -1.4 | 0.664 | i | 2.1
O=C(c1cc2cc(Br)ccc2o1)N1CCCC1 | -11.1 | -15.6 | -6.1 | / | 1.6 | -3.5 | 0.645 | i | -4.1

Reprinted at random: 6 compounds from above.
SMILES | rRNA inh HTS | rRNA inh HTS OD600 | rRNA inh HTS RFP | Vif TR-FRET | HNF4A DNA FP | MLL AF4-AF9 inh | E coli growth | FGF22 binding | ALR H2O2 inh
S=C1NCN(Cc2cccnc2)CN1c1cccc2ccccc12 | 13.7 | 7.5 | 1.6 | 0.3% | 2.7 | -1.4 | 0.664 | i | 2.1
Cc1ccc(NS(=O)(=O)c2ccc(-n3cccn3)cc2)cc1Cl | 12.9 | 12.3 | 5.0 | -1.3% | 3.1 | -3.6 | / | i | /
Cc1nnc(SCC(=O)N2CCCC2)n1-c1ccc(F)cc1 | 5.7 | 12.1 | 2.3 | / | 1.4 | -1.2 | 0.714 | i | -11.2
COc1ccc(S(=O)(=O)c2cnc3ccccc3n2)cc1 | 5.0 | 2.9 | -2.4 | 0.6% | -0.3 | -3.1 | 0.671 | i | 4.0
Cn1c(=O)c(NC2CCCCC2)c2c3c(cccc31)C(=O)c1ccccc1-2 | 80.7 | -4.5 | 7.6 | -7.7% | -110.4 | -30.0 | 0.73 | i | /
O=C(c1cc2cc(Br)ccc2o1)N1CCCC1 | -11.1 | -15.6 | -6.1 | / | 1.6 | -3.5 | 0.645 | i | -4.1

Bioassay records as filed in PubChem.
